# gsp agonist = activates gsp, the McCune-Albright syndrome mutation; gsp mutant cells, cAMP HTRF, 30 min; control for the full effect not named in the record; Potency, µM (highest dose often 76.9 µM), inactives show at the highest dose activation (cAMP increase), most hits filed as activators; 340,000 compounds, 0.13% hits; active = well fitted activation curve with a large enough effect; inconclusive = small, poorly fitted or top-dose-only effect, or another doubt; inactive = no such curve, though single readings can be large or run the other way; cell line not stated here;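 further: phosphodiesterase inhibitor Ro 20-1724 added with compounds to block cAMP breakdown; potency means the concentration at half of the fitted maximal effect; nearly all actives have a fitted effect of over 60% in size; about a fifth of the inactives were tested at one dose only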
#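 Cells stably selected in G418 were plated at 2000/well, grown 16-24 hr, then given compounds in DMSO with the PDE inhibitor […] (300 uM solution added) for 30 min at 37C; cAMP was read by HTRF.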
# Sfp PPTase inh = blocks B. subtilis Sfp PPTase activity | Q9F4F7 | Potency, µM, for inactives: max response, negative = inhibition, most hits filed as inhibitors | 310,000 compounds, 3.5% hits | Biochemical Sfp PPTase activity, qHTS; active means well fitted inhibition curve with a large enough effect; inconclusive means small, poorly fitted or top-dose-only effect, or another doubt; inactive means no such curve, though single readings can be large or run the other way;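 further: the enzyme is Sfp with the accession as filed and its product quenches rhodamine fluorescence; potency means the concentration at half of the fitted maximal effect; 0% = enzyme reaction without inhibitor and -100% = no enzyme wells; top concentration of the series not given in the record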
#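 After 15 min at room temperature with compound, 15 nM Sfp received 5 uM rhodamine-CoA plus 12.5 uM BHQ-2-ybbR (50 mM Hepes pH 7.6, 10 mM MgCl2). Rate came from the fluorescence difference over 30 min, ex 525/em 598 nm.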
# ClpP mod = qHTS Assay for Activators of ClpP | purified B. subtilis ClpP, FRET peptide cleavage, 20 min | Potency, µM (highest dose often 57.5 µM), inactives show at the top dose activity change, negative = active | 340,000 compounds, 1.9% hits | ATP-dependent Clp protease proteolytic subunit (Bacillus subtilis (strain 168)), P80244; active = well fitted falling curve with a large enough effect; inconclusive = small, poorly fitted or top-dose-only effect; inactive = no such curve, though single readings can be large or run the other way; further: potency means the concentration at half of the fitted maximal effect; the source files actives as falling curves though it sought activators and does not explain the sign; nearly all actives have a fitted effect of over 65% in size; many hits overshoot -100%
# Target sequence (P80244 whole entry, looked up): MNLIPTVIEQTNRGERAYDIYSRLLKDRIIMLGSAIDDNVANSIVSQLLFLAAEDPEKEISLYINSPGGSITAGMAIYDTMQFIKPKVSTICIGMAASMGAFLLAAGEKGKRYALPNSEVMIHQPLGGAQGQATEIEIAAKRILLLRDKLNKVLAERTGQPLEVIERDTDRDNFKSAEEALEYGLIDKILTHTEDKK
#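 Buffer: 100 mM Tris/HCl pH8, 100 mM KCl, 0.05% low protease BSA, 2.5% glycerol, 0.01% Tween-20. ClpP 10 microg/mL final; 20 min RT; delta FRET normalized to ADEP and DMSO controls.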
# PINK1 expr mod = changes PINK1 expression; PINK1 immunofluorescence, high-content cytometry, 24 h; Potency, µM (series often up to 76.6 µM), inactives show at the top dose activation (PINK1 increase), usual class: activators; 410,000 compounds, 0.2% hits; active = well fitted activation curve with a large enough effect; inconclusive = small, poorly fitted or top-dose-only effect; inactive = flat fitted curve, though single readings scatter; cell line not stated here;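 further: potency means the concentration at half of the fitted maximal effect; % of control where 0% means no effect; nearly all actives have a fitted effect of over 65% in size; a mitochondrial uncoupler was the plate control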
#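 PINK1 protein level read as immunofluorescence by microplate cytometer in a fixed, stained stable cell line after 24 h exposure to five compound concentrations, with CCCP as control.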
# Menin MLL FP FL = displaces fluorescein MLL peptide from human menin; Fluorescence polarization, fluorescein-MLL peptide displacement from menin; FP activity change, % at 61.4 µM; 290,000 tested, under 10 active; inconclusive = falling polarisation curve, or a change in total fluorescence; inactive = total fluorescence flat and polarisation flat or rising; no compound was filed as active; the % refers to the polarisation; negative = inhibition;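 further: % of control where 0% means no effect; inhibitors lower the polarisation; unlabelled MLL peptide was the positive control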
# gsp antagonist = antagonizes gsp, the McCune-Albright syndrome mutation. gsp-mutant cells, cAMP HTRF, 30 min; control for the full effect not named in the record. Potency, µM (titrated, usually from 76.9 µM), without a hit: at the top dose activity change, negative = inhibition, hits mostly inhibitors. 340,000 compounds, 0.4% hits. AID 624288; active = falling curve of any shape with a large fitted effect; inconclusive = falling curve, mostly with a smaller effect; inactive = flat or rising curve; cell line not stated here;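 further: intracellular cAMP measured with PDE inhibitor Ro 20-1724 present during compound exposure; potency means the concentration at half of the fitted maximal effect; on the % scale 0 is the no-effect control and ±100 the full control effect; nearly all actives have a fitted effect of over 65% in size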
#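 HTRF cAMP measurement after 30 min RT detection following 30 min, 37C compound treatment alongside […] (added as 300 uM solution) in G418-selected cells seeded at 2000/well and grown 16–24 h.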
# D2 ag = agonists of human D2 dopamine receptor (beta-arrestin); P14416; DiscoveRx PathHunter D2 beta-arrestin, luminescence, 90 min; 100% = 57 uM dopamine signal; activation, % (test concentration not listed); 360,000 compounds, 0.084% hits; in the data active = activation above about 40%; inconclusive = about 15% to 40%; inactive = below about 15%; further: compound concentration not given in the record; the text of the record calls up to 30% inactive
# Target sequence (P14416 whole entry, looked up): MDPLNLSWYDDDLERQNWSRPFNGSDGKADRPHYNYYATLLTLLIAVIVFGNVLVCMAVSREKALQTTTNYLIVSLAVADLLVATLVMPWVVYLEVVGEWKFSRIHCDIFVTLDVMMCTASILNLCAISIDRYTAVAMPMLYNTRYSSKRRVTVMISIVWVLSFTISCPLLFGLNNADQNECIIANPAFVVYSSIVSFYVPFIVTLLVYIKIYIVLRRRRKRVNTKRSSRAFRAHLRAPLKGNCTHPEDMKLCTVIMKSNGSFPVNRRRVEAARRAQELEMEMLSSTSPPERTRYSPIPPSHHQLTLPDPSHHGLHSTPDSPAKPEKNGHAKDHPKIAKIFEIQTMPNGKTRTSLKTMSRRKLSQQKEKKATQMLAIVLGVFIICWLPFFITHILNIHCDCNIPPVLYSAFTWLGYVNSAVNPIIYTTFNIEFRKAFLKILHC
#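 Agonist mode: compounds alone added to overnight-plated D2 PathHunter cells for 90 min at 37 C, with 57 uM final dopamine (EC100) defining full response. Beta-arrestin recruitment detected by chemiluminescent reagent, read after 1 h at ambient temperature.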
# Numbers without * were called inactive; u = inconclusive; x = not tested or not shown; & = joins results of further samples; [ ] = another dose, or the depositor's remark.
SMILES,gsp agonist,Sfp PPTase inh,ClpP mod,PINK1 expr mod,Menin MLL FP FL,gsp antagonist,D2 ag
CS(=O)(=O)c1nncn1-c1ccccc1,u,7%,0.3%,0.6%,0.0,16%,-0.9
N#C/C(=C/Nc1ccccc1)c1ccsc1,-61%[inhibitor],-20%,-2.7%,1.3%,-4.2,-5%,-0.7
CC1(C)CC(CCN(Cc2ccccc2)C(=O)c2ccco2)(c2ccccc2)CCO1 (stereo unspecified),6%,-12%,-1.8%,1.6%,-0.7,u,5.5
COc1ccc(-c2csc3ncnc(N4CCN(c5ccccc5[N+](=O)[O-])CC4)c23)cc1,-9%,6%,-1.5%,0.8%,-0.7,-15%,-1.3
CC(NC(=O)C(=O)N1CCCCC1)C(c1cccs1)N1CCN(C)CC1 (stereo unspecified),u,8%,-3.9%,-1.7%,x,15%,1.2
CC(C)(C)NC(=O)NC(=O)CSc1nnc(COc2ccccc2Cl)o1,-18%,12%,-1.8%,-1.0%,3.3,-7%,0.3
Cc1ccc(C(C)C)c(OCC(=O)NNC(=O)Nc2ccccc2)c1,20%[15.4 µM],x,x,3.0%,x,-12%,-6.4
Cc1nnc(Nc2ccc3c(c2)ncn3C)c2ccccc12,-41%[inhibitor],12%,-1.4%,4.2%,1.0,-4%,-5.1
O=C(CSc1nnc(CNC(=O)c2ccccc2F)o1)c1ccc(Cl)cc1,-6%,17%,0.6%,0.2%,6.5,-26%,-2.1
Cc1ccc(-n2c(-c3cnccn3)n[nH]c2=S)c(Br)c1,27%,-5%,x,-0.4%,2.3,-14%,8.7
CCN1CCN(c2ncnc3c2cnn3-c2ccc(C)cc2C)CC1,-19%,5%,-11%,2.4%,-4.2,2%,-1.9
CCOc1ccccc1N(CC(=O)Nc1cccc(OC)c1)S(=O)(=O)c1ccccc1,-30%,-1%,x,5.3%,-0.1,-26%,-0.3
COc1ccc2c(c1)nc(NCCCO)n2Cc1ccccc1,-28%[15.4 µM],22%,x,4.5%,-0.2,2%,-1.8
Cc1oc(-c2ccccc2)cc1C(=O)NCc1ccncc1,-73%[inhibitor],-12%,-1.9%,3.9%,4.3,12%,-6.1
COc1cc(NC(=O)c2cccc([N+](=O)[O-])c2)ccc1NC(=O)c1cc2ccccc2o1,41%,13%,x,-0.4%,0.4,5%,-1.6
CON(C)C(=O)CCC1CCCN1C(=O)OC(C)(C)C (stereo unspecified),x,x,0.5%,-0.7%,x,6%,0.3
Fc1ccc(COc2ccc(-c3nnco3)cc2)c(Cl)c1,-53%[15.4 µM],-20%,x,0.7%,-2.4,-4%,1.1
COc1cc(C)nc(Nc2nc(C)c(C(C)=O)s2)n1,u,-1%,-0.6%,-1.1%,4.9,18%,-1.5
CN(C(=O)c1ccc(NC(=O)Cc2cccc(NC(=O)C3CCCN(C(=O)C4CCCC4)C3)c2)cc1)C1CCCC1 (stereo unspecified),x,x,-2.2%,2.5%,x,-6%,0.9
Cc1ccc(NC(=O)c2cc(-c3cccs3)on2)cc1C,u,3%,21%&23%,3.4%&11%,-3.7,3%,-1.9
CCCC(O)(CCC)C(=O)NN(C(=O)CCl)c1ccccc1,-66%[inhibitor],-1%,-0.5%,4.4%,1.0,-8%,-0.8
C=CCC(CC=C)(C(N)=O)c1ccccc1,3%,18%,x,0.4%,4.4,0%,0.3
CN(CC(=O)Nc1cccc(F)c1)C(=O)c1cccnc1Sc1ccccc1,1%[15.4 µM],x,1.7%,-1.4%,x,-2%,-5.2
Cc1nc(C(=O)Nc2ccc(Cl)cc2)nn1-c1ccc([N+](=O)[O-])cc1,-37%[inhibitor],-2%,-0.1%,13%,2.3,0%,-1.5
Cc1c(/C=N/O)c2ccccn2c1C=O,-65%[inhibitor],5%,1.6%,-0.6%,-4.7,17%,3.2
CCOC(=O)N1CCN(C(=O)CSCC(=O)N=c2sc3cc(OC)ccc3n2C)CC1,15%,x,-6.2%,5.1%,x,2%,u
COc1ccc(-c2nnc(SCC(=O)NC(=O)NCc3ccccc3)o2)cc1,5%,u,-0.3%,7.7%,2.9,9%,-3.3
O=[N+]([O-])c1cnc(Nc2ccc(Cl)cn2)c([N+](=O)[O-])c1,u,5%,x,1.3%,-1.5,-8%,u
O=C(CN1CCN(c2ccccn2)CC1)Nc1ccccc1Br,13%,6%,-7.2%,2.7%,1.4,-1%,u
COCCCn1c(C(=O)NCCN2CCOCC2)cc2c(=O)n3ccccc3nc21,u,22%,-25%,-1.2%,x,6%,1.9
CC(Sc1n[nH]c(-c2cccs2)n1)C(=O)Nc1ccc(C(N)=O)cc1 (stereo unspecified),18%,x,-5.1%,0.3%,x,1%,0.0
CSc1ccc(OC2CCCCC2NS(=O)(=O)c2ccc(Cl)cc2)cc1 (stereo unspecified),-5%[15.4 µM],15%,x,11%,7.5,u,-3.1
O=C1NCCN1c1ccccc1,0%[15.4 µM],x,0.2%,-1.3%,x,-2%,-1.7
O=C(COc1ccccc1)Nc1ccccc1F,0%[15.4 µM],-1%,1.2%,0.2%,-5.1,6%,1.7
Cc1ccc(C(=O)N2CCOCC2)cc1Cl,8%,-2%,0.6%,1.3%,-0.3,7%,-3.7
Cc1cccc(-c2noc(-c3ccno3)n2)c1,-1%,8%,-0.7%,2.3%,-0.4,4%,-3.3
COc1ccc([N+](=O)[O-])cc1NCc1cccc([N+](=O)[O-])c1,-1%[15.4 µM],-12%,x,2.9%,-0.9,-12%,-4.4
Cc1ccc(/C=N/NC(=O)c2csc3c2CCCC3)cc1,-20%,-8%,-5.0%,5.4%,-0.8,-11%,-4.1
CCCCn1c(N)c(C(=S)NC(=O)CC(C)C)c(=O)n(C)c1=O,-4%[15.4 µM],9%,-1.3%,0.6%,-2.0,-11%,-5.6
CC(C)(C)NC(=O)C(c1ccccc1)N(C(=O)C1CSC(=O)C1)c1ccccc1 (stereo unspecified),-2%,16%,-1.3%,3.8%[38.3 µM],-1.0,7%,-2.1
O=C(O)C(=O)/C(=C\c1cccc2ccccc12)c1ccc2ccccc2n1,6%,-3%,16µM*,0.8%,u,15%,-2.1
COC(=O)C1=CN(Cc2ccc(OC)c(OC)c2)C=C(C(=O)OC)C1c1ccccc1F,-3%,-5%,4.3%,0.4%,2.2,-13%,11
COc1ccccc1NC(=O)Nc1nc(CC(=O)NCc2ccc(F)cc2)cs1,-2%,x,-2.0%,2.8%,x,u,1.5
Cc1ccc(O)c(NC(=O)c2cc([N+](=O)[O-])ccc2Cl)c1,-19%[15.4 µM],u,0.3%,-2.9%,-2.8,-5%,4.0
O=C(NCCN1CCOCC1)c1ccc2c(c1)ncn2C1CCCC1,-80%[inhibitor],-7%,-12%,-1.2%,0.2,10%,-5.8
Cc1cc(SCC(=O)OCC(=O)NC(C)c2ccccc2)c(C)cc1Br (stereo unspecified),-44%[inhibitor],10%,7.8%,2.8%,0.1,2%,-3.4
CC1(Cc2ccc(Cl)cc2)C(=O)Nc2ccc(-c3ccc(F)c(Cl)c3)cc21 (stereo unspecified),x,x,-11%,-1.2%,x,x,-5.8
CCCCc1nnc(NC(=O)C2CCN(c3ncnc4sc(C)c(C)c34)CC2)s1,-13%[15.4 µM],x,1.1%,15%,x,1%,-8.6
COCCCn1c(=O)c2ccccc2n(Cc2ccccc2C)c1=O,54%[15.4 µM],-10%,-0.9%,2.4%,-6.7,9%,-1.8
COC(=O)c1sc(N)c(C(=O)OC)c1CSc1nc2sc3c(c2c(=O)n1C)CCC3,-24%,-9%,-1.2%,5.6%,1.6,2%,-2.5
Cc1ccccc1NC(=O)COc1cccc2c1CCNC2=O,-1%[15.4 µM],x,-14%,-0.8%,x,11%,2.5
COc1cc(C2C(C#N)=C(SC)NC3=C2C(=O)CCC3)ccc1O (stereo unspecified),12%[15.4 µM],10%,x,-0.7%,54[activator],0%,-1.3
CC(C)n1c(SCc2ccccc2F)nc2c1c(=O)n(C)c(=O)n2C,25%,7%,0.8%,-1.2%,-0.4,-6%,2.3
O=C(N1CCN(c2ccccc2)CC1)C(F)(F)C(F)F,2%,4%,1.4%,4.4%[38.3 µM],2.1,13%,5.1
OCC(O)/C=N/Nc1nc(Nc2ccccc2)nc(Nc2ccccc2)n1 (stereo unspecified),1%,4%,0.2%,4.2%,-3.9,1%,2.4
Cc1cc(C)cc(N2C(=O)c3nccnc3C2=O)c1,-35%,9%,0.8%,2.0%,2.7,6%,-8.2
CCOC(=O)c1ccc(NC(=O)CSCCC(=O)O)cc1,-1%,16%,1.6%,0.9%,-6.0,8%,0.1
CC(C)C(=O)Nc1nnc(S(=O)(=O)N2CCCCCC2)s1,9%,14%,-1.0%&-3.4%,0.4%&-0.4%,-5.0,2%,-5.4
C#CCN1C(=O)C(O)(CC(=O)c2ccc3c(c2)OCCO3)c2ccccc21 (stereo unspecified),0%,14%,-3.4%,9.8%,5.1,11%,-5.9
CN(CC(=O)NCc1cccnc1)S(=O)(=O)c1ccc(F)cc1,5%,7%,x,0.7%,0.8,8%,1.4

# Additional records.
SMILES,gsp agonist,Sfp PPTase inh,ClpP mod,PINK1 expr mod,Menin MLL FP FL,gsp antagonist,D2 ag
N=c1sccn1CC(=O)Nc1ccc(Cl)c(S(=O)(=O)N2CCOCC2)c1,8%,15%,0.2%,-2.7%,4.5,8%,-0.3
Cc1cc(Cl)nc(SCC(=O)c2ccccc2)n1,-2%,14%,-1.3%,1.4%,-2.3,-18%,-5.3
COC(=O)/C(=C1\Oc2ccc(C(C)(C)C)cc2S1)C(F)(F)F,0%,-11%,-0.2%,19%,-13,6%,-1.3
COC(=O)c1ccc2nc(-c3ccccc3)c(Cc3ccsc3)n2c1,x,x,5.4%,2.6%,x,x,-1.4
O=C(Nc1cccc(O)c1)c1cc(-c2ccc3c(c2)OCO3)on1,-24%,-3%,-1.7%,-0.7%,2.4,6%,-4.1
COc1cccc(NC(=O)CSc2nc3ccccc3c3nc4ccccc4n23)c1,8%,-13%,3.4%,-3.3%,8.7,11%,-3.9

# Assay outcomes: PubChem, National Center for Advancing Translational Sciences (NCATS)
